Vaccinia inh = blocks a specific stage of Vaccinia orthopoxvirus infection, primary screen, cell-based, single point; AID 1053133, 2014; activity change (mCherry), % (no concentration beside the values); hit rate 0.01% among 89,000; Vaccinia-infected cells, mCherry/Venus stage reporter fluorescence; stronger effect = lower value; some inactives read as strong as hits;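 active means mCherry past -33% and 40 or more points under the early reporter, replicates agreeing; inconclusive means past -33% without that gap or agreement; tested in A549 cells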;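 further: scaled between vehicle wells and reference inhibitor wells; 23 nL library stock went into each well; one replicate is shown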
Vaccinia inh Venus = recorded beside Vaccinia inh, whose call it bears; activity change (Venus), %; measured here: Venus reporter, other viral stage;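 negative = less Venus signal; first of two replicates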
Numbers without * were called inactive; ? = inconclusive; . = not tested or not shown; & = joins results of further samples. Some of the compounds tested. The share of hits here may be higher or lower than overall.

SMILES	Vaccinia inh	Vaccinia inh Venus
C[C@@H]1CN([C@H](C)CO)C(=O)c2cc(NC(=O)CCN3CCOCC3)ccc2O[C@H]1CN(C)Cc1ccc(C(=O)O)cc1	-8	-5
C[C@H]1CN([C@@H](C)CO)C(=O)c2cc(C#CCN(C)C)cnc2O[C@H]1CN(C)Cc1ccc2c(c1)OCO2	-1	6
CO[C@H](CN(C)Cc1ccc2c(c1)OCO2)[C@H](C)CN(C(=O)c1ccccc1)[C@@H](C)CO	26	20
CCCNC(=O)C[C@H]1C[C@@H]2c3cc(NC(=O)Nc4ccc(F)cc4)ccc3O[C@@H]2[C@H](CO)O1	14	8
O=C(Nc1ccc(Cl)cc1)N[C@H]1CC[C@@H](CCn2cc(Cc3ccccc3)nn2)O[C@H]1CO	-5	-7
C/C=C/c1ccc([C@@H]2[C@@H](CO)N(C(=O)C3CC3)[C@H]2CN(C)C(C)=O)cc1	7	6
CCCNC(=O)N(C)C[C@@H]1Oc2ncc(C#CC3(O)CCCC3)cc2C(=O)N([C@H](C)CO)C[C@@H]1C	4	6
Cc1noc(C)c1NC(=O)Nc1cccc2c1O[C@@H](CN(C)C(=O)NC(C)C)[C@H](C)CN([C@H](C)CO)C2=O	8	6
C[C@@H]1CCCCO[C@@H](CN(C)S(=O)(=O)c2cccs2)[C@H](C)CN([C@H](C)CO)C(=O)c2cc(NS(=O)(=O)c3ccc(Cl)cc3)ccc2O1	?	.
C[C@H](CO)N1C[C@H](C)[C@@H](CN(C)C(=O)C2CC2)Oc2cc(C#CC3CCCC3)ccc2S1(=O)=O	-22	-23
COc1ccc(S(=O)(=O)Nc2cccc3c2O[C@@H](CN(C)C(=O)Nc2c(C)noc2C)[C@H](C)CN([C@H](C)CO)C3=O)cc1	17	9
O=C(c1ccccc1F)N1CC[C@@H]2[C@@H](CO)Nc3ccc(Br)cc3[C@@H]21	-16	-16
CCN1[C@@H]2c3ccc(C4=CCCC4)c(=O)n3C[C@@H]2[C@@H](CO)[C@@H]1C(=O)NCCCN(C)C	10	17
C/C=C/c1cnc2c(c1)C(=O)N([C@@H](C)CO)C[C@@H](C)[C@H](CN(C)S(=O)(=O)c1ccccc1)O2	19	7
C[C@@H]1CN([C@@H](C)CO)C(=O)c2cccc(NS(C)(=O)=O)c2O[C@H]1CN(C)C(=O)Nc1ccc2c(c1)OCO2	-7	5
Cc1noc(C)c1S(=O)(=O)Nc1ccc2c(c1)C(=O)N([C@H](C)CO)C[C@@H](C)[C@H](CN(C)CC1CCCCC1)O2	7	12
CCCNC(=O)C[C@H]1C[C@@H]2c3cc(NS(=O)(=O)c4cccc(OC)c4)ccc3O[C@@H]2[C@@H](CO)O1	12	4
C[C@@H]1CN([C@@H](C)CO)S(=O)(=O)c2ccc(-c3ccncc3)cc2O[C@@H]1CN(C)Cc1cccnc1	12	5
CCC(=O)N(C)C[C@H]1Oc2cc(C#Cc3ccncc3)ccc2S(=O)(=O)N([C@H](C)CO)C[C@H]1C	-16	-3
Cc1noc(C)c1NC(=O)Nc1ccc2c(c1)C(=O)N([C@H](C)CO)C[C@H](C)[C@@H](CN(C)Cc1ccc(Cl)c(Cl)c1)OCCCC[C@H](C)O2	?	.
CCC(=O)Nc1ccc2c(c1)OC[C@H](C)N(Cc1ccccc1F)C[C@H](C)[C@H](OC)CN(C)C2=O	-31	-23
CC(C)NC(=O)Nc1ccc2c(c1)C(=O)N([C@@H](C)CO)C[C@H](C)[C@H](CN(C)S(=O)(=O)c1cccs1)OCCCC[C@@H](C)O2	13	17
O=C(C[C@H]1C=C[C@H](NC(=O)Nc2ccc3c(c2)OCO3)[C@@H](CO)O1)NCc1ccc(F)cc1	11	10
COc1ccc2c3c([nH]c2c1)[C@@H](CO)N(Cc1cccc(Cl)c1)CC31CN(C(C)=O)C1	14	22
C[C@H](CO)N1C[C@H](C)[C@@H](CN(C)Cc2ccc(C(=O)Nc3ccccc3N)cc2)Oc2ccc(NS(=O)(=O)c3cn(C)cn3)cc2CC1=O	20	13
C[C@@H]1CN([C@H](C)CO)C(=O)c2cc(NC(=O)Nc3ccc(C(F)(F)F)cc3)ccc2O[C@@H]1CN(C)C(=O)Nc1ccc2c(c1)OCO2	2	-3
C[C@@H]1CN([C@H](C)CO)C(=O)Cc2cc(NS(=O)(=O)c3ccccc3)ccc2O[C@H]1CN(C)C	17	6
COc1ccc(NC(=O)Nc2cccc3c2O[C@H](CN(C)C(=O)Nc2ccc4c(c2)OCO4)[C@H](C)CN([C@H](C)CO)C3=O)cc1	8	-2
COCC(=O)N1[C@H](CO)[C@@H](c2ccccc2)C12CN(C(=O)c1cccc(F)c1)C2	4	1
C[C@H](CO)N1C[C@H](C)[C@H](CN(C)C(=O)CN(C)C)Oc2cc(-c3ccncc3)ccc2S1(=O)=O	9	7
COCC(=O)Nc1ccc2c(c1)[C@H]1C[C@H](CC(=O)N[C@@H](C)c3ccccc3)O[C@@H](CO)[C@H]1O2	6	9
CCN(C[C@H]1N[C@H](CO)[C@@H]1c1ccc(-c2ccccc2)cc1)C(=O)COC	-6	0
C[C@@H]1CN([C@@H](C)CO)C(=O)c2cccc(N(C)C)c2O[C@H]1CN(C)S(=O)(=O)c1ccccc1	3	5
COC(=O)C[C@H]1CC[C@@H]2[C@H](COc3ccc(NC(=O)Nc4cccc(Cl)c4)cc3C(=O)N2C)O1	-7	-5
C[C@@H]1CN([C@H](C)CO)C(=O)c2cc(NS(=O)(=O)c3ccc(F)cc3)ccc2O[C@H]1CN(C)C(=O)Nc1cccc2ccccc12	27	20
N#C[C@H]1[C@@H](c2ccccc2C2=CCCCC2)[C@@H](CO)N1C(=O)NC1CCCCC1	-20	-14
O=C(c1ccc(F)cc1)N1CC(=O)N2[C@H](CO)[C@H](c3ccc(C#CC4CCCCC4)cc3)[C@@H]2C1	-33	-34
O=S(=O)(c1cccc(F)c1)N1[C@@H]2CNC[C@H]1C2c1ccc(-c2ccccc2)cc1 (stereo partly drawn)	0&11	25&7
COc1ccc(NC(=O)Nc2ccc3c(c2)C(=O)N([C@H](C)CO)C[C@H](C)[C@@H](CN(C)S(=O)(=O)c2ccc(C)cc2)OCCCC[C@H](C)O3)cc1	2	0
COCC(=O)N(C)C[C@H]1Oc2ncc(-c3ccccc3OC)cc2C(=O)N([C@@H](C)CO)C[C@@H]1C	3	7
O=C(C1CCCCC1)N1CC(=O)N2[C@H](CO)[C@@H](c3ccc(C#Cc4cccc(F)c4)cc3)[C@@H]2C1	-32	-24
COc1ccc2c3c(n(C)c2c1)[C@@H](CO)N(Cc1ccc(F)cc1)CC31CN(CC2CC2)C1	-26	-20
CNC[C@@H]1Oc2cc(-c3cccnc3)ccc2S(=O)(=O)N([C@@H](C)CO)C[C@H]1C	7	-1
COCC(=O)Nc1ccc2c(c1)[C@@H]1C[C@H](CC(=O)NCC3CC3)O[C@@H](CO)[C@@H]1O2	1	2
C[C@@H]1CCCCO[C@H](CN(C)S(=O)(=O)c2cn(C)cn2)[C@@H](C)CN([C@@H](C)CO)C(=O)c2cc(NC(=O)C3CCCCC3)ccc2O1	10	6
COc1ccc(-c2ccc3c(c2)[C@@H]2[C@@H](CCN2S(=O)(=O)c2ccc(OC)cc2)[C@H](CO)N3C)cc1	-16	-19
COCC(=O)N(C)C[C@H]1Oc2cc(C#CCN(C)C)ccc2S(=O)(=O)N([C@H](C)CO)C[C@H]1C	15	0
CN1c2ccc(-c3ccccc3)cc2[C@@H]2[C@@H](CCN2C(=O)c2ccccc2)[C@H]1CO	?	.
C[C@@H]1CN([C@@H](C)CO)C(=O)c2cc(NS(=O)(=O)c3ccc(Cl)cc3)ccc2O[C@@H](C)CCCCO[C@H]1CN(C)S(=O)(=O)c1ccc(F)cc1	-27	-26
C[C@H](CO)N1C[C@H](C)[C@H](CN(C)C(=O)NC2CCCCC2)OCCCC[C@H](C)Oc2ccc(N(C)C)cc2C1=O	0	10

(list continues)
SMILES	Vaccinia inh	Vaccinia inh Venus
C[C@H]1CN([C@@H](C)CO)C(=O)c2ccccc2-c2ccccc2CO[C@@H]1CN(C)Cc1ccc(F)cc1	-26	-25
C[C@@H]1CCCCO[C@H](CN(C)C(=O)CCC(F)(F)F)[C@@H](C)CN([C@H](C)CO)C(=O)c2cc(N(C)C)ccc2O1	3	2
C[C@H]1CN([C@@H](C)CO)C(=O)Cc2cc(NC(=O)CCC(F)(F)F)ccc2O[C@@H]1CN(C)Cc1ccccc1	-4	4
C[C@@H]1CN([C@H](C)CO)S(=O)(=O)c2ccc(C#CC3(O)CCCC3)cc2O[C@@H]1CN(C)C(=O)Cc1ccncc1	11	1
C[C@H](CO)N1C[C@H](C)[C@H](CN(C)C(=O)C2CC2)Oc2cc(/C=C/c3ccccc3)ccc2S1(=O)=O	?	.
COc1ccc(-c2ccc3c(c2)O[C@H](CN(C)C(C)=O)[C@@H](C)CN([C@@H](C)CO)S3(=O)=O)cc1	7	8
C[C@@H]1CN([C@@H](C)CO)C(=O)c2cc(C#CC3(O)CCCC3)cnc2O[C@@H]1CN(C)C(=O)CC1CC1	6	1
CCNC(=O)C[C@H]1CC[C@H]2[C@H](COc3ccc(NC(=O)Cc4cccs4)cc3C(=O)N2C)O1	8	6
C[C@@H]1CN([C@@H](C)CO)C(=O)c2cc(NC(=O)CCCCCC(=O)Nc3ccccc3N)ccc2O[C@H]1CN(C)C(=O)Nc1cccc2ccccc12	-3	4
Cc1noc(C)c1NC(=O)N(C)C[C@@H]1Oc2ncc(C#CCN(C)C)cc2C(=O)N([C@H](C)CO)C[C@@H]1C	16&17	8&17

Taken from above for reference:
SMILES	Vaccinia inh	Vaccinia inh Venus
COCC(=O)N(C)C[C@H]1Oc2cc(C#CCN(C)C)ccc2S(=O)(=O)N([C@H](C)CO)C[C@H]1C	15	0
CN1c2ccc(-c3ccccc3)cc2[C@@H]2[C@@H](CCN2C(=O)c2ccccc2)[C@H]1CO	?	.
C[C@@H]1CN([C@@H](C)CO)C(=O)c2cc(NS(=O)(=O)c3ccc(Cl)cc3)ccc2O[C@@H](C)CCCCO[C@H]1CN(C)S(=O)(=O)c1ccc(F)cc1	-27	-26
C[C@H](CO)N1C[C@H](C)[C@H](CN(C)C(=O)NC2CCCCC2)OCCCC[C@H](C)Oc2ccc(N(C)C)cc2C1=O	0	10
C[C@H]1CN([C@@H](C)CO)C(=O)c2ccccc2-c2ccccc2CO[C@@H]1CN(C)Cc1ccc(F)cc1	-26	-25
C[C@@H]1CCCCO[C@H](CN(C)C(=O)CCC(F)(F)F)[C@@H](C)CN([C@H](C)CO)C(=O)c2cc(N(C)C)ccc2O1	3	2
C[C@H]1CN([C@@H](C)CO)C(=O)Cc2cc(NC(=O)CCC(F)(F)F)ccc2O[C@@H]1CN(C)Cc1ccccc1	-4	4
C[C@@H]1CN([C@H](C)CO)S(=O)(=O)c2ccc(C#CC3(O)CCCC3)cc2O[C@@H]1CN(C)C(=O)Cc1ccncc1	11	1
C[C@H](CO)N1C[C@H](C)[C@H](CN(C)C(=O)C2CC2)Oc2cc(/C=C/c3ccccc3)ccc2S1(=O)=O	?	.
COc1ccc(-c2ccc3c(c2)O[C@H](CN(C)C(C)=O)[C@@H](C)CN([C@@H](C)CO)S3(=O)=O)cc1	7	8
C[C@@H]1CN([C@@H](C)CO)C(=O)c2cc(C#CC3(O)CCCC3)cnc2O[C@@H]1CN(C)C(=O)CC1CC1	6	1

New compounds follow:
SMILES	Vaccinia inh	Vaccinia inh Venus
CNC(=O)C[C@@H]1CC[C@@H]2[C@H](COC[C@@H](O)CN2C(=O)c2ccc3c(c2)OCO3)O1	5	7
CNC[C@H]1Oc2cc(C#CC3CCCCC3)ccc2S(=O)(=O)N([C@H](C)CO)C[C@@H]1C	?	.
O=C(C[C@H]1CC[C@H]2[C@@H](COC[C@@H](O)CN2CC2CCOCC2)O1)NCC1CC1	4	8
CC(C)NC(=O)N(C)C[C@@H]1Oc2ncc(-c3cccc(C#N)c3)cc2C(=O)N([C@H](C)CO)C[C@@H]1C	27&23	7&13
CCCN1[C@@H]2c3ccc(-c4ccccc4)c(=O)n3C[C@@H]2[C@@H](CO)[C@@H]1C(=O)OC	10	6
Cc1noc(C)c1NC(=O)N(C)C[C@H]1Oc2ccc(NC(=O)c3ccncc3)cc2C(=O)N([C@H](C)CO)C[C@@H]1C	8	8
CN1c2ccc(-c3ccc(C#N)cc3)cc2[C@H]2[C@H](CCN2C(=O)C2CCCCC2)[C@@H]1CO	-32	-22
CCNC(=O)C[C@H]1CC[C@H]2[C@@H](COc3ccc(NC(=O)Nc4ccc(C)cc4)cc3C(=O)N2C)O1	23	13
C[C@H]1CN([C@@H](C)CO)C(=O)Cc2cc(N(C)C)ccc2O[C@@H]1CN(C)C(=O)Nc1ccc2c(c1)OCO2	3	6
CN1[C@@H]2c3ccc(C4=CCCC4)c(=O)n3C[C@@H]2[C@@H](CO)[C@@H]1C(=O)NC1Cc2ccccc2C1	-2	20
CO[C@@H]1CN(C)C(=O)c2cc(NC(=O)C3CCC3)ccc2OC[C@@H](C)N(Cc2nccs2)C[C@@H]1C	-7	-8
Cc1noc(C)c1S(=O)(=O)Nc1ccc2c(c1)CC(=O)N([C@H](C)CO)C[C@@H](C)[C@H](CN(C)C(=O)Nc1ccccc1)O2	-2	-2
Cc1ccc(S(=O)(=O)N(C)C[C@@H]2OCCCC[C@@H](C)Oc3ccc(NC(=O)Nc4ccc5c(c4)OCO5)cc3C(=O)N([C@H](C)CO)C[C@H]2C)cc1	-9	-11
C[C@@H]1CCCCO[C@@H](CN(C)Cc2ccccc2)[C@@H](C)CN([C@@H](C)CO)C(=O)c2cc(NC(=O)Nc3ccc(C(F)(F)F)cc3)ccc2O1	?	.

Screening data from PubChem.
